Rango release inh: inhibitors of RanGTP-induced Rango-importin beta complex dissociation; O95149+P62826; Biochemical FRET Rango-importin beta, RanGTP-induced dissociation; Potency, µM (series often up to 46.1 µM), inactives show at the highest dose activity change, negative = inhibition; 0.071% of 340,000 active; active means falling FRET ratio curve, often poorly fitted, with flat reads before Ran was added; inconclusive means other falling curves, or compound fluorescence or quenching; inactive means flat or rising ratio curve;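 further: potency means the concentration at half of the fitted maximal effect; % of control where 0% means no effect; nearly all actives have a fitted effect of over 45% in size; -100% = wells without RanGTP and RCC1; the record marks most hits as doubtful in a second field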
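Rango/importin beta premix (0.1/0.25 uM final), PBS + 1 mM DTT + 0.02% Tween-20 + 0.1% BSA; cpd 5 min RT; FRET pre-read; + RanGTP-RCC1 (0.6 uM Ran, 2 mM GTP, 0.2 uM RCC1); 45 min RT; FRET post-read, ex 430, em 486/530 nm.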
GLA inh pH 4.5: inhibitors of human alpha-galactosidase A at pH 4.5; AID 1467; activity change, negative = inhibition, % at 105 µM; purified enzyme, 4-MU-alpha-Gal fluorescence, pH 4.5; P06280; 230,000 tested, under 10 active; inconclusive = small, poorly fitted or top-dose-only inhibition, or a rising curve; inactive = flat fitted curve, though single readings scatter; no compound was filed as active;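 further: 0% = full activity with enzyme and -100% = basal without enzyme; dose as in the result columns while the protocol names 77 µM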
Target sequence (P06280 whole entry, looked up): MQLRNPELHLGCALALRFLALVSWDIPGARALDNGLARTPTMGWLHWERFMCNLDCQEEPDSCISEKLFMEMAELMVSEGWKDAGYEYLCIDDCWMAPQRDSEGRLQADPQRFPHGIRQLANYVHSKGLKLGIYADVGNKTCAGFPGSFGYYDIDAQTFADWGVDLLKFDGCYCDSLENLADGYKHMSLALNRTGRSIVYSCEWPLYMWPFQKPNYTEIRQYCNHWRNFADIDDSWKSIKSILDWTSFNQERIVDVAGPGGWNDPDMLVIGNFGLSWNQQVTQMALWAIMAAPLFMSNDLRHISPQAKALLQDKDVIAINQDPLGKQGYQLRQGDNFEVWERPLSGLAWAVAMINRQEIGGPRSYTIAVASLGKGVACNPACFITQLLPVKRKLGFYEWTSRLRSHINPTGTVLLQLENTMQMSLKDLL
Rango-impB inh: prevents formation of the Rango-importin beta complex; Q14974; Rango CFP/YFP FRET sensor + importin beta, 45 min; Potency, µM (doses to about 92.2 µM), inactives show at the top dose inhibition of complex formation; 0.031% of 340,000 active; AID 540263; active = rising FRET ratio curve, often small or poorly fitted; inconclusive = mostly compound fluorescence or quenching in the first reads; inactive = flat curves in all reads;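 further: potency means the concentration at half of the fitted maximal effect; 0% = DMSO wells and 100% = buffer wells lacking importin beta; nearly all actives have a fitted effect of over 15% in size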
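FRET biosensor (snurportin 1 IBB flanked by EYFP and cerulean), 50 nM, with compound 5 min, then 0.125 microM importin beta in PBS, 1 mM DTT, 0.02% Tween-20, 0.1% BSA. CFP/YFP ratio read after 45 min at room temperature; pre-read flags interference.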
miR-21 FLuc: raises the signal of a miR-21 reporter; HeLa miR-21 FLuc reporter, luciferase, 48 h; AID 2288; Potency, µM (series often up to 38.3 µM), for the others: at the top dose reporter change, positive = more light; 340,000 tested, under 10 active; active = well fitted rising curve with a large enough effect; inconclusive = small, poorly fitted or top-dose-only effect; inactive = no such curve, though single readings can be large or run the other way;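 further: % of control where 0% means no effect; miR-21 action dims this reporter so a rising signal means less miR-21 action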
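Luminescence from a firefly luciferase reporter carrying a miR-21 binding site downstream, stably expressed under a CMV promoter in HeLa cells that make miR-21 endogenously, reports miRNA modulation after 48 h compound exposure up to approximately 40uM final.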
* hit, by the source's call. These rows are one share of the data, so the mix of outcomes need not match the whole.

How did Cc1ccc(-c2csc3nc(C(C)C)oc(=O)c23)c(C)c1 do in these assays?
Rango release inh: -24.8%; GLA inh pH 4.5: -2.8; Rango-impB inh: -0.3%; miR-21 FLuc: 21.2%

What do the screens show for `CCc1c(C)nc2c(-c3ccccc3)c[nH]n2c1=O`?
Rango release inh: 3.0%; Rango-impB inh: -3.4%; miR-21 FLuc: 18.4%

Results for CCOC(=O)Nc1ccc2c(c1)N(C(=O)CN(C)C)c1ccccc1CC2 ?
Rango release inh: -2.8%; Rango-impB inh: -0.7%; miR-21 FLuc: -5.4%

Results for COc1ccc(CCC(=O)NNC(=O)c2cc(Cl)ccc2OC)cc1OC ?
Rango release inh: 35.0%; Rango-impB inh: -2.3%; miR-21 FLuc: -6.6%

Results for COc1ccc(NC(=S)NNC(=O)Cn2nc(C(F)F)cc2C(F)F)cc1 ?
Rango release inh: 0.6%; GLA inh pH 4.5: -18.0; Rango-impB inh: -1.7%; miR-21 FLuc: -10.7%

What do the screens show for `Cc1cccc(OC(=O)c2ccc3nccnc3c2)c1`?
Rango release inh: 3.2%; GLA inh pH 4.5: 1.1; Rango-impB inh: -0.7%; miR-21 FLuc: -3.0%

How did CN(Cc1ccccc1)S(=O)(=O)c1ccc(Cl)c(C(=O)NCc2ccc3c(c2)OCO3)c1 do in these assays?
Rango release inh: -12.0%; GLA inh pH 4.5: -8.6; Rango-impB inh: 0.5%; miR-21 FLuc: -8.0%

How did O=C1Nc2ccccc2/C1=N\c1sc2c(c1C(=O)Nc1ccccc1)CCCC2 do in these assays?
Rango release inh: 4.0%; GLA inh pH 4.5: -4.5; Rango-impB inh: -0.2%; miR-21 FLuc: -13.0%

What do the screens show for `CCN1C(=O)c2ccccc2Sc2ccc(C(=O)NC(C)C)cc21`?
Rango release inh: 0.5%; Rango-impB inh: inconclusive; miR-21 FLuc: -3.0%

How did Cc1ccc([C@@H]2[C@@H]3C(=O)N(C)C(=O)[C@@H]3[C@]3(Cc4ccccc4)C(=O)N(Cc4ccccn4)CC(=O)N23)o1 do in these assays?
Rango release inh: -3.2%; Rango-impB inh: inconclusive; miR-21 FLuc: -0.3%

Two compounds picked at random from those above:
How did Cc1ccc(-c2csc3nc(C(C)C)oc(=O)c23)c(C)c1 do in these assays?
Rango release inh: -24.8%; GLA inh pH 4.5: -2.8; Rango-impB inh: -0.3%; miR-21 FLuc: 21.2%

How did CN(Cc1ccccc1)S(=O)(=O)c1ccc(Cl)c(C(=O)NCc2ccc3c(c2)OCO3)c1 do in these assays?
Rango release inh: -12.0%; GLA inh pH 4.5: -8.6; Rango-impB inh: 0.5%; miR-21 FLuc: -8.0%

Continued:
Results for Cc1cccc(N(C(=O)CCC(=O)Nc2ccccn2)C(C(=O)NC(C)C)c2ccc(F)cc2)c1 (centres undefined) ?
Rango release inh: 9.0%; Rango-impB inh: 0.1%; miR-21 FLuc: 3.8%

What do the screens show for `CCCOc1ccc(C(=O)Nc2cc(S(=O)(=O)N3CCOCC3)ccc2N2CCN(CC)CC2)cc1OC`?
Rango release inh: 0.0%; Rango-impB inh: -4.0%

Results for CC1CCCC(C)N1CC(O)COCC1COc2ccccc2O1 (centres undefined) ?
Rango release inh: 2.5%; GLA inh pH 4.5: 9.3; Rango-impB inh: 0.1%; miR-21 FLuc: -6.8%

What do the screens show for `CCOc1ccc(-c2nc(-c3cccnc3)no2)cc1`?
Rango release inh: 2.5%; GLA inh pH 4.5: 2.6; Rango-impB inh: 1.1%; miR-21 FLuc: -56.9%

What do the screens show for `Cc1ccc(C)c(NC(=O)COc2coc(CN3CCc4ccccc43)cc2=O)c1`?
Rango release inh: 28.4%; Rango-impB inh: 1.4%

Results for CN1CCN(C(=O)c2ccc3c(=O)n(CCc4ccccc4)c(=S)[nH]c3c2)CC1 ?
Rango release inh: -12.7%; Rango-impB inh: -2.1%

What do the screens show for `Cc1cc(Cl)ccc1OCCCC(=O)OCC(=O)c1c(N)n(C)c(=O)n(C)c1=O`?
Rango release inh: inconclusive; GLA inh pH 4.5: -5.1; Rango-impB inh: -1.1%; miR-21 FLuc: -5.7%

What do the screens show for `Cc1ccc2nc(N(CCN3CCOCC3)C(=O)CCS(=O)(=O)c3ccccc3)sc2c1`?
Rango release inh: 22.6%; Rango-impB inh: -1.5%

How did CCOc1cc(N2CCOCC2)c(OCC)cc1NC(=O)CCC1CCCC1 do in these assays?
Rango release inh: 10.4%; GLA inh pH 4.5: 2.7; Rango-impB inh: 0.1%; miR-21 FLuc: -0.9%

How did CCC(c1nnnn1Cc1ccc(F)cc1)N1CCN(C)CC1 (centres undefined) do in these assays?
Rango release inh: -1.9%; GLA inh pH 4.5: -3.3; Rango-impB inh: 0.0%; miR-21 FLuc: -0.7%

What do the screens show for `O=C(NCc1ccc(F)cc1)c1ccc(CS(=O)(=O)Cc2ccc(F)cc2)o1`?
Rango release inh: 22.1%; GLA inh pH 4.5: 4.2; Rango-impB inh: 0.6%; miR-21 FLuc: 13.0%

How did O=c1c(Cl)c(N2CCN(S(=O)(=O)c3ccccc3)CC2)cnn1-c1ccccc1 do in these assays?
Rango release inh: 5.9%; GLA inh pH 4.5: -21.1; Rango-impB inh: -0.1%; miR-21 FLuc: -7.3%

How did COc1ccc(NS(=O)(=O)c2cccc(-c3nnc4n3CCCCC4)c2)cc1 do in these assays?
Rango release inh: 9.5%; GLA inh pH 4.5: 7.8; Rango-impB inh: 1.7%; miR-21 FLuc: -1.5%

What do the screens show for `Oc1ccc(/C=N/n2c3ccccc3c3ccccc32)cc1`?
Rango release inh: 4.0%; GLA inh pH 4.5: -4.4; Rango-impB inh: -0.8%; miR-21 FLuc: -1.9%

What do the screens show for `O=C(NC(=O)c1c(Cl)cccc1Cl)Nc1ccc(Oc2cccnc2)nc1`?
Rango release inh: -7.6%; GLA inh pH 4.5: -5.1; Rango-impB inh: -0.2%; miR-21 FLuc: 7.2%

How did CC(=O)NC(Cc1c[nH]c2ccccc12)C(=O)N1CCN(S(=O)(=O)c2ccccc2)CC1 (centres undefined) do in these assays?
Rango release inh: -8.5%; Rango-impB inh: -1.1%

Results for Nc1nc(CSC(=S)N2CCOCC2)nc(Nc2ccc(F)cc2)n1 ?
Rango release inh: -0.9%; GLA inh pH 4.5: -0.7; Rango-impB inh: 5.3%; miR-21 FLuc: -31.3%

How did O=C(Nc1ccc(Cl)c(Cl)c1)C1C2C=CC3(O2)C1C(=O)N(CCN1CCCCC1)C3C(=O)NC1CCCCC1 (centres undefined) do in these assays?
Rango release inh: -9.2%; Rango-impB inh: 1.8%; miR-21 FLuc: -8.7%

How did CC(C)C[C@H]1CN=C(N(C)C)N1CCCCc1ccccc1 do in these assays?
Rango release inh: -15.1%; Rango-impB inh: -3.6%

Results for Cc1ccc(S(=O)(=O)N2CCOCC2)c(C)c1-n1cnnn1 ?
Rango release inh: -19.5%; GLA inh pH 4.5: -1.2; Rango-impB inh: 0.9%; miR-21 FLuc: 2.2%

Three compounds already listed, ordered by SMILES length, rising:
Results for Nc1nc(CSC(=S)N2CCOCC2)nc(Nc2ccc(F)cc2)n1 ?
Rango release inh: -0.9%; GLA inh pH 4.5: -0.7; Rango-impB inh: 5.3%; miR-21 FLuc: -31.3%

How did COc1ccc(NS(=O)(=O)c2cccc(-c3nnc4n3CCCCC4)c2)cc1 do in these assays?
Rango release inh: 9.5%; GLA inh pH 4.5: 7.8; Rango-impB inh: 1.7%; miR-21 FLuc: -1.5%

How did O=c1c(Cl)c(N2CCN(S(=O)(=O)c3ccccc3)CC2)cnn1-c1ccccc1 do in these assays?
Rango release inh: 5.9%; GLA inh pH 4.5: -21.1; Rango-impB inh: -0.1%; miR-21 FLuc: -7.3%

New compounds follow.
What do the screens show for `Cc1[nH]c2ccc(C(=O)OC(C)C(=O)NCc3ccccc3)cc2c1C` (centres undefined)?
Rango release inh: 9.1%; Rango-impB inh: 2.7%

How did Cc1ccc(Nc2ncnc3sc(C)c(C)c23)cc1 do in these assays?
Rango release inh: -8.2%; GLA inh pH 4.5: -20.0; Rango-impB inh: 6.4%; miR-21 FLuc: -86.4%

What do the screens show for `CCOC(=O)N1CCN(CCC(=O)c2ccc(Cl)cc2)CC1`?
Rango release inh: inconclusive; GLA inh pH 4.5: 4.6; Rango-impB inh: 0.8%; miR-21 FLuc: -3.8%

What do the screens show for `CN(C(=O)CN1C(=O)/C(=C/c2ccc(Cl)cc2)SC1=S)C1CCS(=O)(=O)C1` (centres undefined)?
Rango release inh: 4.1%; Rango-impB inh: -0.3%; miR-21 FLuc: 3.3%

What do the screens show for `CC1CN=C(N(C(=O)Nc2ccccc2)c2ccc(S(=O)(=O)N3CCOCC3)cc2)S1` (centres undefined)?
Rango release inh: 2.3%; GLA inh pH 4.5: 2.7; Rango-impB inh: -0.3%; miR-21 FLuc: -20.5%

Results for O=c1oc2ccccc2n1CCc1ccccc1 ?
Rango release inh: -4.7%; GLA inh pH 4.5: -2.1; Rango-impB inh: -0.8%; miR-21 FLuc: -13.6%

Results for O=C(COC(=O)c1cn(-c2ccccc2)nc1-c1cccnc1)NC1CC1 ?
Rango release inh: -8.6%; GLA inh pH 4.5: 2.6; Rango-impB inh: -1.4%; miR-21 FLuc: 3.5%

How did COc1cccc(C(=O)Nc2cc(OC)ccc2NC(=O)c2ccco2)c1 do in these assays?
Rango release inh: -3.1%; Rango-impB inh: -0.4%; miR-21 FLuc: 1.4%

What do the screens show for `OCCNc1nc(N2CCN(Cc3ccccc3)CC2)nc2ccccc12`?
Rango release inh: 1.6%; GLA inh pH 4.5: 3.2; Rango-impB inh: 0.9%; miR-21 FLuc: -14.1%

How did CCc1ccc(N2CC34C=CC(O3)C(C(=O)OC(C)C)C4C2=O)cc1 (centres undefined) do in these assays?
Rango release inh: -20.4%; GLA inh pH 4.5: inconclusive; Rango-impB inh: -2.9%; miR-21 FLuc: -2.8%

Results for CC(C)Oc1cccc(C(=O)C2CCCN(Cc3cnc(N4CCCC4)s3)C2)c1 (centres undefined) ?
Rango release inh: 1.2%; GLA inh pH 4.5: 1.1; Rango-impB inh: 2.6%; miR-21 FLuc: 3.4%

How did CCN(CC)c1ccc(C(=O)NNC(=O)c2ccc3c(=O)n4c(nc3c2)CCC4)cc1 do in these assays?
Rango release inh: 5.3%; Rango-impB inh: -0.1%

Results for CN(C)S(=O)(=O)c1ccc2nnn(OCC(=O)NC3CCS(=O)(=O)C3)c2c1 (centres undefined) ?
Rango release inh: -5.7%; Rango-impB inh: 0.5%

How did CNS(=O)(=O)c1cc(-c2nnc(Nc3ccc(CC(N)=O)cc3)c3ccccc23)ccc1C do in these assays?
Rango release inh: -8.5%; Rango-impB inh: 0.3%; miR-21 FLuc: 3.9%

How did COc1ccc(NC(C)C(=O)N2CCN(Cc3ccccc3)CC2)cc1 (centres undefined) do in these assays?
Rango release inh: 0.0%; Rango-impB inh: -1.4%; miR-21 FLuc: 0.0%

What do the screens show for `CCOC(=O)C[C@H]1c2ccccc2S(=O)(=O)N1c1cccc(OC)c1`?
Rango release inh: -11.1%; Rango-impB inh: 2.8%

How did NS(=O)(=O)c1ccc(CNC(=O)/C=C/c2ccc(Cl)c(Cl)c2)cc1 do in these assays?
Rango release inh: 46.8%; GLA inh pH 4.5: -4.6; Rango-impB inh: -1.7%; miR-21 FLuc: -6.4%

How did CCOC(=O)c1ccc2c(c1)NC(=O)C(N1CCN(c3ccc(OC)cc3)CC1)S2 (centres undefined) do in these assays?
Rango release inh: 1.1%; GLA inh pH 4.5: 3.1; Rango-impB inh: 3.4%; miR-21 FLuc: -8.3%

How did CC(OC(=O)c1ccccc1)C(=O)NCc1ccco1 (centres undefined) do in these assays?
Rango release inh: -14.9%; Rango-impB inh: -1.7%

Results for CCNc1nc(Nc2ccc(C)c(Cl)c2)c2cnn(C)c2n1 ?
Rango release inh: -15.2%; Rango-impB inh: inconclusive; miR-21 FLuc: 15.1%

What do the screens show for `Cc1ccc(C(=O)Nc2cccnc2)cc1S(=O)(=O)N1CCCCC1`?
Rango release inh: 11.7%; GLA inh pH 4.5: 1.6; Rango-impB inh: -0.4%; miR-21 FLuc: -1.1%

What do the screens show for `O=C(CCC(=O)NNC(=O)COc1ccc(Br)cc1Br)NCc1ccccc1`?
Rango release inh: -13.2%; GLA inh pH 4.5: -2.8; Rango-impB inh: -3.4%; miR-21 FLuc: -11.3%

Source: PubChem BioAssay (National Center for Advancing Translational Sciences (NCATS))
